Compound activity as filed in PubChem.
SARS PLpro yeast: qHTS of Yeast-based Assay for SARS-CoV PLP. S. cerevisiae expressing SARS-CoV PLpro, growth rescue; control for the full effect not named in the record. Potency, µM (series often up to 32.9 µM), for the others: at the highest dose activity, positive = growth rescue. actives 0.19% (n = 330,000); active means well fitted rising curve with a large enough effect; inconclusive means small, poorly fitted or top-dose-only effect; inactive means no such curve, though single readings can be large or run the other way; further: 0% is about no effect; nearly all actives have a fitted effect of over 55% in size; growth read by luminescence after 48 h
RE007 growth inh: qHTS Assay for Inhibitors of the HIV-1 protein Vpr; actives 0.21% (n = 360,000); AID 651644, 2012; S. pombe RE007 Vpr strain, BacTiter-Glo ATP luminescence, 24 h; control for the full effect not named in the record; Potency, µM (titrated, usually from 92.2 µM), without a hit: at the highest dose activity change, negative = less growth; active = well fitted falling curve with a large enough effect; inconclusive = small, poorly fitted or top-dose-only effect; inactive = no such curve, though single readings can be large or run the other way;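 further: on the % scale 0 is the no-effect control and ±100 the full control effect; nearly all actives have a fitted effect of over 50% in size; the assay follows cell death caused by Vpr and the record does not say whether a fall means rescue or toxicity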
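Fission yeast RE007 carrying one integrated HIV-1 vpr copy, seeded at OD 0.01 in PMG+AL medium with 23 nL pinned compound. Grown 24 h at 30 degrees; viability read by BacTiter-Glo luminescence after 5 min.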
LASV entry inh: qHTS for Inhibitors of binding or entry into cells for Lassa Virus; Lassa virus pseudotype entry inhibition, cell reporter; control for the full effect not named in the record; Potency, µM (top dose mostly 37.9 µM), without a hit: at the top dose activity change, negative = inhibition, most hits filed as inhibitors; actives 1.2% (n = 300,000); AID 540256, 2011; active means well fitted inhibition curve with a large enough effect; inconclusive means small, poorly fitted or top-dose-only effect, or effect the other way; inactive means flat fitted curve, though single readings scatter; tested in HEK293 cells; further: on the % scale 0 is the no-effect control and ±100 the full control effect; nearly all actives have a fitted effect of over 50% in size; luciferase read-out
MARV entry inh: qHTS for inhibitors of binding or entry into cells for Marburg Virus. Marburg virus pseudotyped entry inhibition, cell reporter; control for the full effect not named in the record; about a third of the inactives were read at about 46 µM. actives 1.8% (n = 300,000). AID 540276, 2011. Potency, µM (doses to about 37.8 µM), for inactives: at the top dose activity change, negative = inhibition, usual class: inhibitors; active = well fitted inhibition curve with a large enough effect; inconclusive = small, poorly fitted or top-dose-only effect, or effect the other way; inactive = flat fitted curve, though single readings scatter; tested in HEK293 cells; about a fifth of its hits are not listed in these tables; further: on the % scale 0 is the no-effect control and ±100 the full control effect; luciferase read-out
NS1 inh: qHTS Assay for Inhibitors of Influenza NS1 Protein Function; S. cerevisiae slowed by influenza A NS1, growth recovery by OD600; Potency, µM (top dose mostly 46.1 µM), for the others: at the highest dose activity, positive = more growth; actives 0.4% (n = 270,000); active means well fitted rising curve with a large enough effect; inconclusive means small, poorly fitted or top-dose-only effect; inactive means no such curve, though single readings can be large or run the other way; further: nearly all actives have a fitted effect of over 50% in size
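In this qHTS, NS1 from influenza A is expressed in budding yeast, where it slows growth. Cells are switched from glucose to 2% galactose medium (pH 6.0, -URA), treated with compound, and growth recovery is read at OD600.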
Cruzain inh noDet: qHTS Assay for Promiscuous and Specific Inhibitors of Cruzain (without detergent); Cruzipain (Trypanosoma cruzi), P25779; purified cruzain, Z-FR-AMC fluorescence, no detergent; Potency, µM, without a hit: max response, negative = inhibition, hits mostly inhibitors; actives 2.3% (n = 200,000); AID 1476, 2009;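 further: plate controls were enzyme without inhibitor for no effect and buffer without enzyme for full effect; nearly all actives have a fitted effect of over 40% in size; top concentration of the series not given in the record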
Target sequence (P25779 123-467 limits assumed): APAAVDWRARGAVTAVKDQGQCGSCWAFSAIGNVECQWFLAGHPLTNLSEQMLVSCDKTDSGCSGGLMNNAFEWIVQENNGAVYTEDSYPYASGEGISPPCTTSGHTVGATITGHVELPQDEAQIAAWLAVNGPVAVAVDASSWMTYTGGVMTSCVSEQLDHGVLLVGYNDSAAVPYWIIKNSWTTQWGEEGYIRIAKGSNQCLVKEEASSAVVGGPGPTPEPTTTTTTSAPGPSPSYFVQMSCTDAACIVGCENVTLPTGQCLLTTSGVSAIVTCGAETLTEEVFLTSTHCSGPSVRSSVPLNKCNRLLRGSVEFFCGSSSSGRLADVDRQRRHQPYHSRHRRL
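Purified cruzain at 1.5 nM, pre-incubated 15 min with compound at room temperature in 100 mM sodium acetate pH 5.5, 5 mM DTT, 0.00005% Triton X-100. Reaction started with 2 uM Z-FR-AMC; AMC fluorescence increase over 60 s gives rate.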
2A StopGo: High Throughput Screening for Foot and Mouth Disease Virus Antivirals | actives 1.2% (n = 410,000) | Potency, µM (series often up to 57.9 µM), inactives show at the highest dose signal change, negative = less light | AID 1159524, 2015 | human cells with a luciferase reporter of 2A StopGo recoding; control for the full effect not named in the record; active = well fitted falling curve with a large enough effect; inconclusive = small, poorly fitted or top-dose-only effect; inactive = no such curve, though single readings can be large or run the other way; tested in HEK293T cells; further: on the % scale 0 is the no-effect control and ±100 the full control effect; nearly all actives have a fitted effect of over 45% in size; luciferase light after 4 h
Cruzain Triton: qHTS Assay for Promiscuous and Specific Inhibitors of Cruzain (with detergent) | AID 1478, 2009 | Cruzipain (Trypanosoma cruzi), P25779 | Potency, µM, without a hit: max response, negative = inhibition, actives largely listed as inhibitors | actives 0.43% (n = 200,000) | purified cruzain, Z-FR-AMC fluorescence, 0.01% Triton;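 further: plate controls were neutral wells for no effect and buffer without enzyme for full effect; nearly all actives have a fitted effect of over 40% in size; top concentration of the series not given in the record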
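In this qHTS format, compounds are incubated with 1.5 nM cruzain for 15 min at room temperature before 2 uM Z-FR-AMC is added. Release of AMC is followed at 360/450 nm, and progress is taken as the 60 s fluorescence difference.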
* hit, by the source's call; ? = inconclusive; . = no result given; & = joins results of further samples; [ ] = dose if it differs, or a comment. Unless noted, the call rests on the fitted dose curve; in most records, active means well fitted curve in the direction sought with a large enough effect; inconclusive means small, poorly fitted or top-dose-only effect, or another doubt; inactive means no such curve, though single readings can be large; an effect the other way counts as inactive or inconclusive. Potency means the concentration at half of the fitted maximal effect.

Below each compound – SARS PLpro yeast	RE007 growth inh	LASV entry inh	MARV entry inh	NS1 inh	Cruzain inh noDet	2A StopGo	Cruzain Triton
> Cc1ccc(N2C(N)=NC(N)=NC23CCCC3)c(C)c1
    -1%	6%	5%	37%	8%	-2%	-18%	3.4%
> COCCn1c(-c2cccc([N+](=O)[O-])c2)nc2c1c(=O)[nH]c(=O)n2Cc1ccccc1
    10%	23%	?	?	3%	-14%	-14%	-1.8%
> O=[N+]([O-])c1ccc(C2Nc3cccc4cccc(c34)N2)cc1
    -25%	-4%	1%	12%	6%	?	-6%	-0.8%
> COc1cc(C(=O)Oc2ccccc2/C=N/NC(=O)c2ccc(C)c(Cl)c2)cc(OC)c1OC
    -9%	5%	?	?	12%	-21%	9%	-1.5%
> COc1ccc(NC(=O)CSc2nc3ccccc3c(=O)n2CCC(=O)N2CCCCC2)cc1
    2%	10%	?	?	-3%	26%	13%	-4.2%
> c1ccc(N2CCN(Cc3nc4ccccc4[nH]3)CC2)nc1
    0%	-8%	15%[46.1 µM]	-2%&-2%[46.1 µM]	13%	-3%	1%&-5%	-4.2%
> C=CCOc1ccc(/C=C2\SC(=S)N(C(C(=O)O)c3ccccc3)C2=O)cc1 (stereo not given)
    0%	-8%	-18%	?	6%	.	0%	.
> O=C(CN1CC(c2ccccc2)CC1=O)NCc1ccc(F)cc1 (stereo not given)
    -18%	-5%	-4%	11%	-4%	3%	22%	1.3%
> Cc1c(Cl)cccc1-n1ccnc1SCC(=O)O
    -9%	2%	4%	?	3%	-7%	7%	2.7%
> Cc1ccc(-c2nnc(N3CCN(C(=O)c4ccco4)CC3)c3ccccc23)cc1
    4%	32%	?	2%	-68%	-7%	-13%	-9.2%
> COc1cc(/C=C/C(=O)OCC(=O)N(CC(C)C)c2c(N)n(Cc3ccccc3)c(=O)[nH]c2=O)ccc1O
    .	14%	-7%	8%	.	.	-19%	.
> Cc1cc(C)cc(NC(=O)c2ccc(CNc3c(N4CCCC4)c(=O)c3=O)cc2)c1
    3%	0%	?	-21%[46.1 µM]	-1%	.	-30%	.
> Cn1c(O)c(C=NC(CC(N)=O)C(=O)O)c(=O)n(C)c1=O (stereo not given)
    -20%	.	.	.	4%	-7%	.	0.9%
> CCN(CC)S(=O)(=O)c1ccc2c(c1)N(CC(=O)NCc1ccccn1)C(=O)CO2
    -1%	8%	.	.	8%	.	1%	.
> O=S(=O)(c1ccc(Oc2ccc(Br)cc2F)nc1)N1CCCCC1
    5%	0%	-11%	.	-6%	-5%	?	2.3%
> CC(=O)NCCCC(=O)NN1C(=S)N(Cc2ccccc2)C(=O)C1CC(=O)Nc1cccc(C)c1 (stereo not given)
    -2%	11%	.	-1%[46.1 µM]	.	.	-3%	.
> CC(O)CNc1nc2c(c(=O)n(Cc3ccccc3)c(=O)n2C)n1C (stereo not given)
    1%	-7%	12%	9%	2%	.	-6%	.
> O=C(Nc1cccc(Cl)c1N1CCCCC1)c1ccc2c(c1)OCCO2
    -3%	2%	?	?	-78%	-12%	?	-5.2%
> COc1cccc(CNC(=O)CCC(=O)N2CC(C)Oc3ccccc32)c1OC (stereo not given)
    -11%	3%	.	.	12%	.	-22%	.
> CCOc1ccc(CCNC(=O)c2ccc(OCc3c(C)noc3C)cc2)cc1OCC
    -1%	9%	?	?	.	.	?	.
> O=C(O)c1ccc(NC(=O)c2ccccc2NC(=O)c2cccc(F)c2)cc1
    -10%	3%	19%	2%	12%	.	8%	.
> O=c1c2ccccc2nc(CSc2nnnn2-c2ccccc2)n1-c1ccccc1Cl
    24%	4%	?	-16%	22%	?	-11%	-1.3%
> Cc1cccc(-n2c(-c3csc(C)c3C)n[nH]c2=S)c1
    ?	.	19%	?	6%	2%	-17%	-0.9%
> O=[N+]([O-])c1ccc(O)c(CN2CCCCCC2)c1
    0%	3%	.	.	0%	.	-10%	.
> Cc1cc(NC(=O)Cc2ccccc2)cc(-c2nc3ccccc3o2)c1O
    .	.	21%[46.1 µM]	1%[46.1 µM]	.	-16%	-22%	1.2%
> N#C/C(C(N)=O)=C1/CCCN1Cc1ccccc1
    .	2%	-6%	-3%[46.1 µM]	.	.	12%	.
> Cc1cccc(C(=O)OCC(=O)c2ccc3c(c2)NC(=O)CO3)c1
    2%	-20%	13%	6%	.	.	-18%	.
> Cc1ccc(CN2C(=O)N/C(=C/c3ccc(-c4ccc(C(=O)O)cc4)o3)C2=O)cc1
    -6%	8%	.	.	2%	.	-11%	.
> CC(C)Oc1ccc(CN=C(N)N=C(N)N)cc1Cl
    9%	-12%	16%	0%[46.1 µM]	8%	-7%	?	-1.7%
> Cc1noc(C)c1C(=O)OCC(=O)c1ccc[nH]1
    -8%	13%	18%	34%	-9%	1%	2%	-6.2%

Next entries
Below each compound – SARS PLpro yeast	RE007 growth inh	LASV entry inh	MARV entry inh	NS1 inh	Cruzain inh noDet	2A StopGo	Cruzain Triton
> CCN1CCN(CC(=O)Nc2cc(C)c(C)cc2[N+](=O)[O-])CC1
    -2%	4%	?	-1%	3%	-8%	-12%	4.7%
> Cc1nn(C)c(Cl)c1CN1CCN(CCC(C)C)C(CCO)C1 (stereo not given)
    -1%	-12%	.	.	-1%	.	-5%	.
> Cc1ccc(CNC(=O)c2ccc(CS(=O)(=O)c3ccccc3C)o2)cc1
    -5%	6%	?	-2%&-2%[46.1 µM]	-2%	-2%	-20%&-15%	-2.3%
> Cc1ccc(C(=O)N(C)CC(=O)Nc2ccc(N3CCOCC3)cc2)s1
    -1%	5%	-2%	0%[46.1 µM]	.	.	14%	.
> CCc1ccc(OCCCC(=O)NCc2ccccc2)cc1
    5%	-4%	?	?	-21%	2%	-3%	-4.2%
> CCOc1ccccc1OCC(=O)OCC(=O)c1c(C)[nH]c2ccccc12
    -12%	16%	9%	27%	.	.	-17%	.
> CCCOc1c(Br)cc(/C=N/O)cc1OC
    .	?	-15%	10µM*	-6%	7%	0%	-5.5%
> O=C(CSc1ccc(Br)cc1)Nc1ccc(N2CCOCC2)cc1
    0%	6%	-1%	0%	.	.	-15%	.
> Cc1cc(=O)[nH]c2cc(O)ccc12
    -3%	12%	20%	6%	7%	-1%	.	-3.7%
> OCCCNC(=S)NC1CCCC1
    1%	5%	.	.	3%	.	-12%	.
> COc1ccc(N2CCN(C(=O)CSc3nnc(-c4cc5ccccc5cc4O)n3C)CC2)cc1
    -2%	-2%	-2%	-18%&-18%	-29%	21%	25µM*	-2.5%
> CN1C(=O)c2ccccc2N(C)C1c1cccc(O)c1 (stereo not given)
    1%	10%	-11%[46.1 µM]	-2%[46.1 µM]	11%	.	1%	.
> COc1cc(O)cc2c1C(=O)O[C@@H](C)CCCC(=O)CCCCC2
    1%	5%	.	.	6%	.	-11%	.
> COc1cc(OC)c2c(-c3cccc(-c4ccc(CO)cc4)c3)cc(=O)oc2c1
    10%	-6%	.	.	.	3%	?	-0.9%
> COCCOC(=O)C1=C(C)NC2=C(C(=O)CC(C)(C)C2)C1c1cccnc1 (stereo not given)
    8%	0%	12%	2%	-6%	-4%	11%	-8.4%
> COc1ccc(NC(=O)c2ccc(COCC(F)(F)F)cc2)cc1OC
    3%	.	0%	?	19%	1%	-19%	-3.2%
> CC1=CC(C)C2(CO)COC(c3ccccc3O)C1C2C (stereo not given)
    -7%	-5%	?	0%	-20%	3%	-3%	1.6%
> Cc1ccc(NCc2nnc3n2CCCCC3)c(C)c1
    1%	6%	-14%[46.1 µM]	-2%[46.1 µM]	-4%	.	-10%	.
> COc1ccccc1Oc1ccc2c(c1)C(=O)N(c1ccccc1)C2=O
    22%	11%	-6%	-2%	4%	18%	-19%	-6.7%
> CC(C)N1CCSC1=S
    .	6%	8%	-19%	.	.	-22%	.
> CCOC(=O)C1C(=O)OC2(CCCC2)C1C(=O)OCC (stereo not given)
    -3%	5%	30%[14.3 µM]	-13%	2%	7%	17%	3.8%
> CCCCn1c(N)c(-c2nc3ccccc3s2)c2c([N+](=O)[O-])nn(CC)c(=O)c21
    -11%	-1%	?	?	5%	-5%	1%	3.6%
> CC(/C=C/c1ccco1)=N\NC(=O)c1cc(C)[nH]n1
    0%	-12%	-9%	2%	22%	1%	34%[activator]	-2.7%
> COc1ccc(NC(=O)C23CC4CC(C2)CC(c2ccc(C)cc2)(C4)C3)cc1
    0%	12%	?	?	-3%	-9%	-29%	-3.9%
> Cc1cc(C)cc(N/C(N)=N/c2nc(C)cc(C)n2)c1
    20%	0%	21µM*	?	-4%	0%	-28%	-2.3%
> O=C(O)c1nn(CC(=O)N2CCN(c3ncc(C(F)(F)F)cc3Cl)CC2)c(=O)c2ccccc12
    1%	-7%	-22%[46.1 µM]	15%[46.1 µM]	28%	.	?	.

Entries of single compounds, looked up by structure:
Cc1cccc(-n2c(-c3csc(C)c3C)n[nH]c2=S)c1 is listed with SARS PLpro yeast: ?; RE007 growth inh: .; LASV entry inh: 19%; MARV entry inh: ?; NS1 inh: 6%; Cruzain inh noDet: 2%; 2A StopGo: -17%; Cruzain Triton: -0.9%
Cc1cc(C)cc(N/C(N)=N/c2nc(C)cc(C)n2)c1 is listed with SARS PLpro yeast: 20%; RE007 growth inh: 0%; LASV entry inh: 21µM*; MARV entry inh: ?; NS1 inh: -4%; Cruzain inh noDet: 0%; 2A StopGo: -28%; Cruzain Triton: -2.3%
